Screens as filed in PubChem.
liver stage – Plasmodium liver-stage growth inhibition, dose response, imaging, Malaria Box, P. yoelii, HepG2-A16-CD81EGFP (AID 602156); P. yoelii liver stage in HepG2-A16-CD81EGFP, imaging; first-round cut-off not given here; calls after a first round at 10 µM; hits with a dose series show IC50 in µM; 5,700 compounds, 4.8% hits; in the data active = a potency from the dose series;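 also: infected cells exposed to compound for 48 hours before fixation; stained parasite area by imaging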
The depositor's hits bear a star; i = inactive. These rows are one share of the data; the hit share may differ from the screen's.

CC(C)(C)CC(C)(C)Nc1c(-c2ccccc2OC(=O)/C=C/c2ccccc2)nc2ccccn12
  liver stage: i
O=C(O)CCCNC(=O)C(O)(c1ccccc1)c1ccccc1
  liver stage: i
Cc1cccc2nc(N)nc(N)c12
  liver stage: i
O=C(NCCc1ccccc1)c1cnc(NCCCN2CCCC2)nc1NCC1CCCCC1
  liver stage: i
CC1(C)CC(=O)C2=C(C1)Nc1ccccc1N(C(=O)Cc1ccccc1)C2c1ccc([N+](=O)[O-])s1 (stereo not drawn)
  liver stage: i
CCN1CCN(C(=O)Nc2ccc(Cc3ccc(NC(=O)N4CCN(CC)CC4)cc3)cc2)CC1
  liver stage: i
CNC(=O)NNC(=O)c1cccnc1
  liver stage: i
Nc1cc(C(=O)Nc2ccc(C3=NCCCN3)cc2)ccc1C(=O)Nc1ccc(C2=NCCCN2)cc1
  liver stage: i
O=C1c2ccccc2C(=O)c2c1ccc1nonc21
  liver stage: i
CCC(c1nc2ccccc2c(=O)n1-c1ccccc1OC)N(CCc1ccccc1)C(=O)c1ccc(C)cc1 (stereo not drawn)
  liver stage: i
O=C(Nc1ccc(Oc2ccccc2)cc1)NC(CN1CCCC1)c1ccccc1 (stereo not drawn)
  liver stage: i
COC(=O)c1ccc(S(=O)(=O)N2CCC3(CC2)Nc2ccccc2-n2cccc23)cc1
  liver stage: i
CCCN1CCC(NC(c2ccccc2)c2ccc(Cl)cc2)CC1 (stereo not drawn)
  liver stage: i
CCOC(=O)c1nnn(-c2nonc2N)c1-c1ccc(Br)cc1
  liver stage: i
CC(C)CN(C(C)C(=O)NC(CN1CCCC1)c1ccccc1)S(=O)(=O)Cc1ccccc1 (stereo not drawn)
  liver stage: i

Cc1cc(C)c2c(c1)c(-c1ccccc1)c(-c1ccccc1)n2CC(O)Cn1cnc(-c2ccccc2)c1-c1ccccc1 (stereo not drawn)
  liver stage: i
CCOC(=O)C1=C(C)NC2=C(C(=O)C(C(=O)OCC)C(c3cccc(OC)c3)C2)C1c1ccc(Br)cc1 (stereo not drawn)
  liver stage: i
COc1ccccc1C(=O)Oc1ccccc1-c1nc2ccccn2c1NC(C)(C)CC(C)(C)C
  liver stage: i
O=[N+]([O-])c1ccc(-c2ccc(C=NNc3nc(Nc4ccccc4)nc(Nc4ccccc4)n3)o2)cc1
  liver stage: i
Cc1ccc2c(C)nc(Nc3nc(C)cc(-c4ccccc4)n3)nc2c1
  liver stage: i
CC(C)(C)C1=NN(CC(=O)Nc2ccc3c(c2)OCO3)C(=O)c2cc3ccccc3n2C1
  liver stage: i
Oc1ccccc1-c1nc(-c2ccccc2)nc(-c2ccc(Br)cc2)n1
  liver stage: i
CC(C)CN1C(=O)c2ccccc2C(C(=O)Nc2ccc(F)c(Cl)c2)C1c1cccs1 (stereo not drawn)
  liver stage: i
OCC[n+]1c2ccccc2nc2ccc(N3CCOCC3)cc21
  liver stage: i
CCCN(CCC)C(=O)c1c[nH]c2ccc(S(=O)(=O)N(C)c3ccc(F)cc3)cc2c1=O
  liver stage: i
Cc1ccc(Nc2nc(NN=Cc3ccc(-c4ccc([N+](=O)[O-])cc4)o3)nc(N3CCOCC3)n2)cc1Cl
  liver stage: i
CN(C)c1ccc(-c2nc(-c3ccc(-c4[nH]c(-c5ccc(N(C)C)cc5)nc4-c4ccccc4)cc3)c(-c3ccccc3)[nH]2)cc1
  liver stage: i
CN(C)c1ccc(Nc2nc(NCC3CCCO3)c3ccccc3n2)cc1 (stereo not drawn)
  liver stage: i
CCN(CC)c1nc(Nc2cc(C)ccc2C)nc(Nc2ccccc2O)n1
  liver stage: i
CN(C)c1ccc(/C=C2\N=C(c3ccccc3F)OC2=O)cc1
  liver stage: i

CN(C)c1ccc(C=C2SC(=Nc3ccc(O)cc3)NC2=O)cc1
  liver stage: i
c1ccc2cc3c(Nc4ccc(N5CCOCC5)cc4)ccnc3cc2c1
  liver stage: i
FC(F)(F)c1cccc(-c2nc3c(s2)CN(C2CCCC2)CC3)c1
  liver stage: i
Cc1nc(N2CCN(c3ccccn3)CC2)c2c(C)c(C(=O)Nc3c(F)cccc3F)sc2n1
  liver stage: i
O=C(Oc1ccc(N2C(=O)c3ccc([N+](=O)[O-])cc3C2=O)cc1)c1ccco1
  liver stage: i
CN(C=Cc1sc2ccc3ccccc3c2[n+]1C)c1ccccc1
  liver stage: i
CCN(CC)CCCN(Cc1cc2ccc(OC)cc2[nH]c1=O)C(=S)NCc1ccccc1
  liver stage: i
Cc1cccc(-n2nc3c(c2NC(=O)c2ccc4c(c2)OCO4)CS(=O)(=O)C3)c1C
  liver stage: i
COc1ccc(C(=O)C[n+]2ccc(N)c(C)c2C)cc1
  liver stage: i
Nc1ccc(-c2nc3ccc(Oc4ccc5nc(-c6ccc(N)cc6)[nH]c5c4)cc3[nH]2)cc1
  liver stage: i
O=C(NCc1cc2cc3c(cc2nc1Cl)OCO3)c1ccco1
  liver stage: i
Cn1nc(C(F)(F)F)c(-c2ccc(F)cc2)c1NC(=O)Nc1ccc(F)cc1F
  liver stage: i
O=c1[nH]nc(SCc2c(F)cccc2[N+](=O)[O-])c(=O)[nH]1
  liver stage: i
CCOc1cc2c(cc1OCC)C(c1ccc(O)c(Cl)c1)NCC2 (stereo not drawn)
  liver stage: i
O=c1c(=Cc2ccc(Cl)cc2)sc2nc3ccccc3n12
  liver stage: i

Some of the entries so far, as comma-separated lines.
Molecule,liver stage
FC(F)(F)c1cccc(-c2nc3c(s2)CN(C2CCCC2)CC3)c1,i
Cc1nc(N2CCN(c3ccccn3)CC2)c2c(C)c(C(=O)Nc3c(F)cccc3F)sc2n1,i
O=C(Oc1ccc(N2C(=O)c3ccc([N+](=O)[O-])cc3C2=O)cc1)c1ccco1,i
CN(C=Cc1sc2ccc3ccccc3c2[n+]1C)c1ccccc1,i
CCN(CC)CCCN(Cc1cc2ccc(OC)cc2[nH]c1=O)C(=S)NCc1ccccc1,i

The list continues:
Oc1ccc(Nc2nc(NCc3ccco3)c3ccccc3n2)cc1
  liver stage: i
CCCOC(=O)C1=C(C)NC2=C(C(=O)CC(c3ccc(OC)c(OC)c3)C2)C1c1cccc(Br)c1 (stereo not drawn)
  liver stage: i
CCC1=[N+](C)c2cccc3cccc(c23)N1C
  liver stage: i
CCc1ccc(-n2c(C(CC)N(CCc3ccc(OC)c(OC)c3)C(=O)C(CC)c3ccccc3)nc3ccccc3c2=O)cc1 (stereo not drawn)
  liver stage: i
CC(C)CNC(=O)c1cnc(NCCCN2CCCC2)nc1NC1CCCC1
  liver stage: i
COc1ccc2c(c1)c1c3n2CCN(Cc2ccccc2)C3=[N+](C)CC1
  liver stage: i
O=C1NC(=S)N/C1=C/c1cccc(Oc2ccccc2)c1
  liver stage: i
O=C(O)c1ccc2c(c1)N=CN(C1CCCCC1)C2
  liver stage: i
COc1cc(NC(=O)C(F)(F)F)c(C(=O)c2ccc(C(F)(F)F)cc2)cc1OC
  liver stage: i
O=C1Cc2c([nH]c3ccc(OCc4ccccc4)cc23)C2CC=CCC12 (stereo not drawn)
  liver stage: i
CC(C)[C@@H](CO)Nc1ccnc2c(-c3ccccc3F)cnn12
  liver stage: i
COc1ccc(-n2cc(-c3ccc(Cl)cc3)[n+]3c2SCCC3)cc1
  liver stage: i
CCOc1cc(Br)cc(/C=C2\NC(=S)NC2=O)c1O
  liver stage: i
CCCC[C@@H](C)C(O)[C@H]1C(=O)N[C@@H](CC)C(=O)N(C)CC(=O)N(C)[C@@H](CC(C)C)C(=O)N[C@@H](C(C)C)C(=O)N(C)[C@@H](CC(C)C)C(=O)N[C@@H](C)C(=O)N[C@@H](C)C(=O)N(C)[C@@H](CC(C)C)C(=O)N(C)[C@@H](CC(C)C)C(=O)N(C)[C@@H](C(C)C)C(=O)N1C (stereo partly drawn)
  liver stage: i
Nc1c(C(=O)Nc2ccc(Br)cc2)sc2nc3c(c(-c4cccs4)c12)CCC3
  liver stage: i

COc1ccc(N2C(=O)c3cccnc3C2=O)cc1
  liver stage: i
CCn1c(/C=C/N(C)c2ccccc2)[n+](CC)c2ccc(Cl)cc21
  liver stage: i
Cc1cccc(CCNc2cc(C)nc3nc(C)nn23)c1
  liver stage: i
CCCOc1ccc(C(=O)Nc2cccc(-c3nc4ncccc4o3)c2)cc1
  liver stage: i
CC(=O)N(C1=C(N2CCOCC2)C(=O)c2ccccc2C1=O)c1ccc(Br)cc1
  liver stage: i
COc1ccc(CC(=O)N(CCCC(C)Nc2cc(OC)cc3cccnc23)Cc2ccc(OC)c(OC)c2)cc1 (stereo not drawn)
  liver stage: i
CCC(c1nc2ccccc2c(=O)n1-c1cccc(C)c1)N(Cc1ccccc1)C(=O)Nc1c(C(C)C)cccc1C(C)C (stereo not drawn)
  liver stage: i
O=C(O)c1ccc([C@@H]2Nc3c(ccc4ccccc34)[C@@H]3C=CC[C@@H]32)cc1
  liver stage: i
O=c1cc(-c2ccccc2)[nH]c2ccccc12
  liver stage: i
O=C(c1cnn(-c2ccccc2)c1C(F)(F)F)N1CCN(c2ccnc3cc(Cl)ccc23)CC1
  liver stage: i
Cc1ccc2c(c1)C(C)(c1ccc(Cl)cc1)CC(C)(C)N2C(=O)COc1ccc2ccccc2c1 (stereo not drawn)
  liver stage: i
CN(C)CCNC(=O)c1c[nH]c2ccc(S(=O)(=O)N3CCc4ccccc43)cc2c1=O
  liver stage: i
CCOC(=O)C1=C(C)N=c2sc(=Cc3ccccc3OCc3ccccc3)c(=O)n2C1c1ccccc1OC(C)C (stereo not drawn)
  liver stage: i
COc1ccc(C(=O)Nc2nonc2-c2ccc(OC)c(OC)c2)cc1Cl
  liver stage: i
O=C(Nc1ccc(C2=NCCCN2)cc1)c1ccc(C(=O)Nc2ccc(C3=NCCCN3)cc2)cc1
  liver stage: i

C[n+]1c(-c2ccccc2)cc(-c2ccccc2)cc1-c1ccccc1
  liver stage: i
CCCCCN(C(=O)c1cccc([N+](=O)[O-])c1)C(CC)c1nc2ccccc2c(=O)n1-c1ccccc1OC (stereo not drawn)
  liver stage: i
O=C(Oc1ccc(-c2ccc(OC(=O)c3ccco3)cc2)cc1)c1ccco1
  liver stage: i
COc1cc(CNCCCN(C)C)ccc1OCc1ccc(F)cc1Cl
  liver stage: i
CC(C)CN1C(=O)c2ccccc2C(C(=O)Nc2ccc(F)cc2F)C1c1cccs1 (stereo not drawn)
  liver stage: i
O=C(ON=C(c1ccncc1)c1ccc(Cl)cc1)c1ccccc1
  liver stage: i
COc1ccc(C(OCC(=O)N2CCN(Cc3ccccc3)CC2)c2ccccc2)cn1 (stereo not drawn)
  liver stage: i
CCOC(=O)C1=C(C)NC2=C(C(=O)CC(c3ccc(OC)c(OC)c3)C2)C1c1ccccc1Cl (stereo not drawn)
  liver stage: i
Cc1oc(-c2cccs2)nc1CN1CCC(CO)(CCOc2ccccc2)CC1
  liver stage: i
COc1cccc(-c2cc(NC(=NCc3ccco3)SC)n[nH]2)c1
  liver stage: i
c1ccc(C2=NC(c3ccccc3)(c3ccccc3)c3ccccc3N2)cc1
  liver stage: i
CCOC(=O)c1c(C)[nH]c2c1cc(O)c1ccccc12
  liver stage: i
COc1ccc(CCn2c(SCC(=O)N3CCN(c4ccccc4OC)CC3)nc3ccccc3c2=O)cc1OC
  liver stage: i
CC(C)=CCCC1=CCC(CNCCCN(C)C)C(C)C1 (stereo not drawn)
  liver stage: i
COc1ccc(OC)c(NC2=C(Cl)C(=O)N(c3ccc(C)c(Cl)c3)C2=O)c1
  liver stage: i

Cc1ccnc(NC(c2ccc3ccccc3c2)c2ccc3cccnc3c2O)c1 (stereo not drawn)
  liver stage: 0.56µM*
CC(C)=CCCC(C)=CCCC(C)NCCN1CCNCC1 (stereo not drawn)
  liver stage: i
CCN(CC)S(=O)(=O)c1ccc(-c2csc(Nc3ccc(C)c(C)c3)n2)cc1
  liver stage: i
CCCCCCN(C(=O)COCc1ccccc1)C(CC)c1nc2ccccc2c(=O)n1-c1ccc(F)c(Cl)c1 (stereo not drawn)
  liver stage: i
Cc1ccc(C=C2SC(=Nc3ccccc3)NC2=O)c(C)c1
  liver stage: i
OCC[n+]1ccc(/C=C/c2c[nH]c3ccccc23)cc1
  liver stage: i
Oc1ccc(-c2ccccn2)cc1CNC1CCN(Cc2ccccc2)CC1
  liver stage: i
CC(C)C(=O)NC(Nc1cccc([N+](=O)[O-])c1)C(Cl)(Cl)Cl (stereo not drawn)
  liver stage: i
CCSc1ccc2ccccc2[n+]1CC
  liver stage: i
Cc1ccn2c(NC(C)(C)CC(C)(C)C)c(-c3ccccc3OC(=O)c3cccc(F)c3)nc2c1
  liver stage: i
CCCCNC(=O)c1ccc2c(c1)N=C(c1cccc(OCC)c1)N(CCCN1CCCC1=O)C2
  liver stage: i
CC1CCN(S(=O)(=O)c2ccc(C(=O)Nc3sc4c(c3C(N)=O)CCN(C)C4)cc2)CC1
  liver stage: i
CCN1/C(=C\C=C2/SC(=S)N(c3ccccc3)C2=O)C(C)(C)c2cc(-c3ccccc3)ccc21
  liver stage: i
O=C1CC(c2nc3ccccc3n2CCCOc2ccccc2)CN1c1ccc(F)cc1 (stereo not drawn)
  liver stage: i
O=C(Cc1ccccc1)N1CCOc2c(cc(-c3csc4ccccc34)cc2OCCc2ccccn2)C1
  liver stage: i

CCOC(=O)c1ccc(N2C(=O)c3n[nH]c(C)c3C2c2ccccc2OC)cc1 (stereo not drawn)
  liver stage: i
CCc1ccc(C(=O)C[n+]2cc(-c3ccc(OC)cc3)n3c2CCC3)cc1
  liver stage: i
Cc1cc(NC(=O)C2c3ccccc3C(=O)N(CC(C)C)C2c2cccs2)no1 (stereo not drawn)
  liver stage: i
COCCNC(=O)[C@@H]1C[C@@H](Sc2nc3ccccc3[nH]2)CN1Cc1ccc2ccccc2c1
  liver stage: i
CC[n+]1c(C=CC=C2N(C)c3ccccc3C2(C)C)sc2ccccc21
  liver stage: i
CN(C)CCNc1ncnc2c1[nH]c1ccc(Cl)cc12
  liver stage: i
Cc1ccc(NC(=Nc2ccccc2O)Nc2ccc(C)cc2)cc1
  liver stage: i
CCC(=O)N1CCc2cc(Br)cc(S(=O)(=O)N3CCN(CC)CC3)c21
  liver stage: i
O=c1c2c3c(sc2ncn1CCCc1ccccc1)CC(N1CCC(N2CCCCC2)CC1)CC3 (stereo not drawn)
  liver stage: i
CCC(CC)C(=O)Nc1c2c(nn1-c1cccc(Cl)c1)CS(=O)C2 (stereo not drawn)
  liver stage: i
